# Compound activity (PubChem)
# TRPML1 ag – agonists of human TRPML1 channel | Q9GZU1 | TRPML1-expressing cells, Ca2+ dye fluorescence, FDSS; host cell line not named in the record; reference of the full effect not given here | activation, % (test concentration not listed) | 410,000 tested, 0.12% active | AID 624414; in the data active = activation above about 50%; inconclusive = about 30% to 50%; inactive = below about 30%; note: 0% is about no effect; the text of the record puts the active cut at 80%
#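 TRPML1-DL cells, Tet-induced overnight (~16 h, 37 degrees C), loaded 45-90 min at room temperature with Ca8 no-wash calcium dye plus quencher. FDSS fluorescence: 10 s baseline, compound pin-transfer, 110 s agonist read, then EC80 54-4 (4uM final) and 110 s antagonist read.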
# PINK1 expr mod – PINK1 expression modulation. PINK1 immunofluorescence, high-content cytometry, 24 h. Potency, µM (doses to about 76.6 µM), inactives show at the highest dose activation (PINK1 increase), hits mostly activators. 410,000 tested, 0.2% active; active = well fitted activation curve with a large enough effect; inconclusive = small, poorly fitted or top-dose-only effect; inactive = flat fitted curve, though single readings scatter; cell line not stated here;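 note: potency is the fitted concentration of half-maximal effect; % of control where 0% means no effect; nearly all actives have a fitted effect of over 65% in size; a mitochondrial uncoupler was the plate control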
#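 Cells are seeded, rested 12 hours, then given compound at five concentrations or DMSO for 24 hours. After fixation, blocking and antibody staining, PINK1 amount and mitochondrial localization are scored; CCCP serves as control.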
# Six1-Eya2 inh – inhibitors of human Six1/Eya2 interaction. AlphaScreen GST-Six1/His-Eya2 binding, biochemical; hits give low values; control for the full effect not named in the record. 360,000 tested, 0.56% active. activity change, % (no concentration beside the values); in the data active = activity change below about -65%; inconclusive = about -30% to -65%; inactive = above about -30%; note: % is set by controls: 0 for no effect and ±100 for the full control effect; compound concentration not given in the record
# Target sequence (O00167 whole entry, looked up): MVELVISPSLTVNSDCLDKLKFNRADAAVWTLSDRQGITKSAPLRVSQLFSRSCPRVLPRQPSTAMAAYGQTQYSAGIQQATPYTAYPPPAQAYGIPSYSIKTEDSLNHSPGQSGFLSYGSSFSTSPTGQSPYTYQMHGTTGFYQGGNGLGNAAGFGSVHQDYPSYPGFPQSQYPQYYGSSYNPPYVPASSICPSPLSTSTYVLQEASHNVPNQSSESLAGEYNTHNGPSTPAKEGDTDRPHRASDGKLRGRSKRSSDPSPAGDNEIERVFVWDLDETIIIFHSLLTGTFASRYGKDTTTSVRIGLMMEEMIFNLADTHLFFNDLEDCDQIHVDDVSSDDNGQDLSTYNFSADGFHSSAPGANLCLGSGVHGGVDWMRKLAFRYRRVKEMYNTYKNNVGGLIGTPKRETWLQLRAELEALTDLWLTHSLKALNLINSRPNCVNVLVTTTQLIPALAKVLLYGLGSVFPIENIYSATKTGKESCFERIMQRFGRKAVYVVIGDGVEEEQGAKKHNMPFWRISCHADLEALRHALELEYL
# Target sequence (Q15475 whole entry, looked up): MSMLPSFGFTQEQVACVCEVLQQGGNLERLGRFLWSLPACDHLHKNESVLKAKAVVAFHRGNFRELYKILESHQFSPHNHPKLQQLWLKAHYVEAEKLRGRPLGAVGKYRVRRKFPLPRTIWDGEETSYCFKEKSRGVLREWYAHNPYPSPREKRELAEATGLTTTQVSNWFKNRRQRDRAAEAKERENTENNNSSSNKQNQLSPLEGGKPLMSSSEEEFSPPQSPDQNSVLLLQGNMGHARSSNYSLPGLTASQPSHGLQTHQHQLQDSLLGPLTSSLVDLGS
#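 Homogeneous AlphaScreen proximity assay pairing GST-Six1 with His-tagged Eya2 (added as 5X mix: 250 nM and 500 nM) in 50 mM Tris pH 8.0, 300 mM NaCl, 1 mM TCEP. Glutathione donor and nickel acceptor beads; 1 h, 37 °C, dark.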
# D2 agonist – activates the human D2 dopamine receptor | P14416 | DiscoveRx PathHunter D2 beta-arrestin, luminescence, 90 min; 100% = 57 uM dopamine signal | activation, % (test concentration not listed) | 360,000 tested, 0.084% active | AID 624465; in the data active = activation above about 40%; inconclusive = about 15% to 40%; inactive = below about 15%; note: compound concentration not given in the record; the text of the record calls up to 30% inactive
#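 Agonist mode: compounds alone added to overnight-plated D2 PathHunter cells for 90 min at 37 C, with 57 uM final dopamine (EC100) defining full response. Beta-arrestin recruitment detected by chemiluminescent reagent, read after 1 h at ambient temperature.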
# TRPML1 blocker – inhibitors of human TRPML1 channel; Q9GZU1; TRPML1-inducible cells, Ca2+ dye fluorescence, FDSS; hits give low values; inhibition of EC80 agonist-evoked calcium signal; activity change, negative = inhibition, % (concentration not given with the values); 390,000 tested, 0.02% active; in the data active means activity change below about -50%; inconclusive means about -30% to -50%; inactive means above about -30%;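 note: stimulus is agonist 54-4 at its EC80 concentration; % is set by controls: 0 for no effect and ±100 for the full control effect; compound concentration not given in the record; the text of the record puts the active cut at -80%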
#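 TRPML1-DL cells, Tet-induced overnight (~16 h, 37 °C) at 1,500 cells/well, were loaded with Ca8 no-wash dye plus quencher for 45-90 min at room temperature. Compounds were pinned during FDSS kinetic reading; agonist 54-4 at EC80 (4 uM final) then added.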
# CtBP-E1A inh – inhibitors of CtBP/E1A interaction | AlphaScreen GST-E1A/His-CtBP binding, 1536-well; hits give low values; control for the full effect not named in the record | activity change, % (no concentration beside the values) | 340,000 tested, 0.49% active | AID 651724; in the data active means activity change below about -65%; inconclusive means about -30% to -65%; inactive means above about -30%; note: % is set by controls: 0 for no effect and ±100 for the full control effect; compound concentration not given in the record
#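 AlphaScreen with 125 nM GST-E1A and 125 nM His-CtBP (5X stocks) in Tris pH 8.0, 300 mM NaCl, BSA, Tween 20, TCEP. Compounds preincubated 2 h at 37 deg C, then glutathione donor/nickel acceptor beads added for 1 h at 37 deg C in dark.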
# Numbers without * were called inactive; x = not tested or not shown; & = joins results of further samples; [ ] = another dose, or the depositor's remark.
1	COc1cc(/C=C/CN2CCN(CCC(C)C)C(CCO)C2)ccc1O (stereo unspecified)
2	CCc1ccc(-c2cn3c(n2)sc2cc(C(=O)NC4CCCCCC4)ccc23)cc1
3	Cc1cccc(-c2nc(SCC(=O)Nc3cccc(C(F)(F)F)c3)n3[nH]c(=O)cc3n2)c1
4	COc1cc2c(cc1OC)CN(C(=O)c1ccc(OC)c(S(=O)(=O)N3CCOCC3)c1)CC2
5	COC(=O)c1ccc(CNC(=O)COC(=O)CCC2CCCC2)cc1
6	S=C(Nc1ccccc1Cl)NC1CCCCCC1
7	CC(=O)c1c(C)[nH]c(C(=O)Nc2cccc(S(=O)(=O)N3CCOCC3)c2)c1C
8	Cc1ccc(-c2nn(C)c(=O)c3ccccc23)cc1CNC(=O)CN1CCOCC1
9	CCOC(=O)CN1CC23C=CC(O2)C(C(=O)Nc2ccc(OC)cc2OC)C3C1=O (stereo unspecified)
10	COc1ccc(C2/C(=C(/O)c3ccc4c(c3)CC(C)O4)C(=O)C(=O)N2CCCn2ccnc2)cc1OC (stereo unspecified)
Screen / compound no.	1	2	3	4	5	6	7	8	9	10
TRPML1 ag	0.3	0.4	2.2	-1.1	1.2	1.4	0.2	-0.4	1.7	0.4
PINK1 expr mod	0.5%	-0.6%	0.3%	0.0%	3.4%	-2.0%	13%	-0.3%	-2.7%	0.6%
Six1-Eya2 inh	2	x	x	-2	3	-3	-15	9	-3	-4
D2 agonist	-3.6	x	x	-1.8	0.3	-2.1	-2.8	-1.4	-0.1	-4.9
TRPML1 blocker	21	13	28	-3	-5	3	16	12	-7	20
CtBP-E1A inh	0	x	x	-4	0	x	-14	7	4	4

11	CCc1ccc(NC(=O)Cn2c3ncccc3c(=O)n2-c2ccc(C)c(C)c2)cc1
12	S=C(NCc1cccnc1)c1ccccc1
13	Cc1csc(SCC(=O)Nc2ccccn2)n1
14	CN1CCN(C(=O)c2cccc3c(-c4ccc(F)c(F)c4)coc23)CC1
15	CC(C)(C)NC(=O)c1cc(Cl)ccc1[N+](=O)[O-]
16	CC1=C(C(=O)Nc2cccnc2)C(c2ccc(Cl)cc2)n2nc(-c3ccccc3)nc2N1 (stereo unspecified)
17	CCN(CC)C(=O)C(=O)c1c(-c2ccccc2)[nH]c2ccccc12
18	Cc1ccc(OCCC(=O)OCC(=O)Nc2cc(C)cc(C)c2)cc1
19	COc1ccc(/C=C/C(=O)OCC(=O)c2c(N)n(C)c(=O)n(C)c2=O)c(OC)c1
20	CC(OC(=O)CCC(=O)N1CCN(S(=O)(=O)c2ccc3ccccc3c2)CC1)C(=O)NC(N)=O (stereo unspecified)
Screen / compound no.	11	12	13	14	15	16	17	18	19	20
TRPML1 ag	-0.3	1.3	-0.9	0.0	0.0	-0.1	-1.2	1.9	-0.2	1.9
PINK1 expr mod	0.5%	4.5%	2.2%	-0.3%	2.6%	1.3%	0.3%	1.9%	4.2%	-0.9%
Six1-Eya2 inh	x	1	-2	-4	3	x	-1	2	15	-13
D2 agonist	x	-3.9	-0.9	3.6	-8.1	x	-5.2	0.7	-2.3	3.1
TRPML1 blocker	6	-4	4	x	-23	-19	-10	-10	15	6
CtBP-E1A inh	x	-5	-2	-4	3	x	7	7	-12	-22

# Molecules above that contain an aryl thioether with sulfur outside any ring, in the order listed:
3	Cc1cccc(-c2nc(SCC(=O)Nc3cccc(C(F)(F)F)c3)n3[nH]c(=O)cc3n2)c1
13	Cc1csc(SCC(=O)Nc2ccccn2)n1
Screen / compound no.	3	13
TRPML1 ag	2.2	-0.9
PINK1 expr mod	0.3%	2.2%
Six1-Eya2 inh	x	-2
D2 agonist	x	-0.9
TRPML1 blocker	28	4
CtBP-E1A inh	x	-2

# Single values from the results shown.
# Under PINK1 expr mod, entry 14 reads -0.3%
# Under TRPML1 blocker, entry 11 reads 6
# Under CtBP-E1A inh, entry 7 reads -14
# Under PINK1 expr mod, entry 17 reads 0.3%

# (more compounds)
21	COc1ccc(-c2nnc(S/C(=C/c3ccc(Cl)cc3)C(=O)O)o2)cc1
22	COc1cccc(NC(=O)NC(=O)c2c(C)cc(Cl)nc2Cl)c1
23	CC1Cc2ccccc2N1Cc1cc(=O)c(OCC(=O)NCCc2ccccc2)co1 (stereo unspecified)
24	Cc1cc(=O)c2n(Cc3ccc(Cl)cc3)nc[n+]2[nH]1
25	COc1ccccc1Nc1sc(C(=O)c2ccc(C)cc2C)c(N)c1S(=O)(=O)c1ccccc1
26	COc1ccc(NC(=S)N2CCCC2)cc1
27	Cc1ccc(-c2nnn(CC(=O)N(c3cccc(O)c3)C(C(=O)NC(C)(C)C)c3cccs3)n2)o1 (stereo unspecified)
28	CCN1c2ccccc2-c2nc3ccccc3n2C1c1ccncc1 (stereo unspecified)
29	COc1ccc(S(=O)(=O)NCCc2csc(-c3cccnc3)n2)cc1
30	COc1ccc(/C=N/Nc2nc(-c3cccc(S(=O)(=O)N4CCCC4)c3)cs2)cc1OC
Screen / compound no.	21	22	23	24	25	26	27	28	29	30
TRPML1 ag	0.1	-0.8	2.1	0.4	1.0	-0.5	0.3	-0.5	0.2	-0.3
PINK1 expr mod	4.8%	-0.5%	-2.3%	0.8%	3.9%	0.1%	7.8%[38.3 µM]	-2.7%	1.5%	1.7%
Six1-Eya2 inh	5	-4	-11	21	x	2	-1	-24	24	-25
D2 agonist	3.5	-1.5	-2.7	-3.1	x	-2.2	-1.6	-3.5	-4.4	5.0
TRPML1 blocker	31	2	23	-10	21	-29	43	5	14	9
CtBP-E1A inh	1	-4	-6	3	x	-9	9	-28	0	-1

31	Cc1cc(S(=O)(=O)N2CCCC2)ccc1OCC(=O)NC1CCCC1
32	Cc1ccc2[nH]c(=O)c3cc(C(=O)N(C)C4CCCCC4)sc3c2c1
33	COc1ccc(Cn2c(SCc3ccc(C(=O)NC4CCCC4)cc3)nc3cccnc32)cc1
34	O=C(CSc1nnc(CNC(=O)c2cccc(F)c2)n1-c1ccccc1)Nc1ccccc1F
35	CC(CN(C)Cc1ccccc1)OC(=O)c1ccc2c(c1)OCCO2 (stereo unspecified)
36	CC(=O)c1ccc(NC(=O)Cn2nc(C)cc2C)cc1
37	CCCCn1c(N)c(N(CC(C)C)C(=O)COc2cc(C)ccc2Cl)c(=O)[nH]c1=O
38	C/C=C(\C)C(=O)OC1[C@H](OC(C)=O)C2(CO)C(CC1(C)C)C1=CCC3C4(C)CCC(O[C@@H]5O[C@H](C(=O)O)[C@@H](O[C@@H]6O[C@H](CO)[C@@H](O)[C@H](O)[C@H]6O)[C@H](O)[C@H]5O[C@H]5O[C@H](CO)[C@@H](O)[C@H](O)[C@H]5O)[C@](C)(CO)C4CCC3(C)[C@]1(C)C[C@H]2O (stereo partly specified)
39	Cc1ccc(S(=O)(=O)N2CCN(c3ccccn3)CC2)cc1
40	CN(C)c1ccc(CNc2nc3ccccc3n2C)cc1
Screen / compound no.	31	32	33	34	35	36	37	38	39	40
TRPML1 ag	-0.4	-0.3	0.0	0.5	2.2	1.0	-0.3	x	-0.8	-0.4
PINK1 expr mod	1.7%	2.9%	7.2%	-1.5%	-1.4%	-1.8%	0.0%	-0.3%	7.5%	0.6%
Six1-Eya2 inh	3	8	x	x	3	10	6	1	0	-16
D2 agonist	-3.2	2.7	x	x	-4.1	-0.9	-3.8	41*	-2.8	-2.1
TRPML1 blocker	19	-11	-5	2	-2	28	23	x	26	-1
CtBP-E1A inh	0	-15	x	x	5	1	-3	5	5	-6

# Screen by screen, from the results shown:
# Compounds 31 to 38 in CtBP-E1A inh read 0, -15, x, x, 5, 1, -3, 5
# Compounds 31 to 38 in D2 agonist read -3.2, 2.7, x, x, -4.1, -0.9, -3.8, 41*
# Compounds 31 to 38 in Six1-Eya2 inh read 3, 8, x, x, 3, 10, 6, 1

# Filtered by structure: those above with a furan ring, fused or not (2)
14	CN1CCN(C(=O)c2cccc3c(-c4ccc(F)c(F)c4)coc23)CC1
27	Cc1ccc(-c2nnn(CC(=O)N(c3cccc(O)c3)C(C(=O)NC(C)(C)C)c3cccs3)n2)o1 (stereo unspecified)
Screen / compound no.	14	27
TRPML1 ag	0.0	0.3
PINK1 expr mod	-0.3%	7.8%[38.3 µM]
Six1-Eya2 inh	-4	-1
D2 agonist	3.6	-1.6
TRPML1 blocker	x	43
CtBP-E1A inh	-4	9

# Following part
41	CCc1c(C(=O)NCc2cnn(C)c2)csc1C
42	O=C(CSC1CC(=O)N(CCc2ccccc2)C1=O)Nc1ccc(Cl)cc1 (stereo unspecified)
43	CCOC(=O)c1c(NC(=O)Cc2coc3cc(C)ccc23)sc2c1CCCC2
44	CSCCC(NC(=O)C1CCC(C)CC1)C(=O)NCCN1CCC(C)CC1 (stereo unspecified)
45	Cc1cc(C)c(S(=O)(=O)c2ccccc2)c(Cl)n1
46	Cc1ccc(O)c(-c2cc(C(=O)NCc3ccccc3)[nH]n2)c1
47	Cc1ccccc1N=C(NO)c1cccnc1
48	COc1ccc(C(=O)N/N=C(/C)c2ccc(N3CCCCC3)cc2)cc1
49	CCNC(=O)C1CCCN(C(=O)c2ccc(OC(F)F)cc2)CC1 (stereo unspecified)
50	CCNCC(O)COCC(O)CNCC (stereo unspecified)
51	COc1ccc(-c2cc(C(=O)NCc3cccc(C(F)(F)F)c3)[nH]n2)c(C)c1
52	CCCCNC(=O)C(Cc1ccccc1)NS(=O)(=O)c1ccc2c(c1)c(=O)n(C)c(=O)n2C (stereo unspecified)
Screen / compound no.	41	42	43	44	45	46	47	48	49	50	51	52
TRPML1 ag	2.6	1.3	1.1	-0.9	1.5	-0.6	0.1	-0.1	-0.1	0.0	-0.6	-1.0&-0.8
PINK1 expr mod	8.7%[38.3 µM]	0.1%	-2.1%	-1.0%	-0.5%	7.2%	2.6%	-1.1%	0.8%	1.6%	6.7%	1.2%&0.6%
Six1-Eya2 inh	3	10	x	-7	-6	-7	3	0	5	-1	-2	-13
D2 agonist	-1.7	-0.7	x	-2.7	0.6	-8.2	-4.2	-2.4	-4.4	0.2	-1.6	1.6
TRPML1 blocker	-7	-16	-16	7	8	-2	2	5	0	-5	x	52&22
CtBP-E1A inh	2	-6	x	-1	-2	-17	2	2	5	0	-4	0
